# D2 PAM: positive allosteric modulators of human D2 dopamine receptor. P14416. DiscoveRx D2 beta-arrestin cells, luminescence, 90 min; 100% = 57 uM dopamine signal. potentiation, % (no concentration beside the values). 0.23% of 360,000 active; active = potentiation of 50% or more; inconclusive = 30% to 50%; inactive = 30% or less;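 note: compound concentration not given in the record; tested on top of an EC20 dose of dopamine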
#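 PathHunter D2 cells, attached overnight at 37 deg C, received compound in DMSO plus dopamine at EC20 (50 nM final) for 90 min at 37 deg C. Beta-arrestin recruitment was read as luminescence after 1 h with detection reagent at ambient temperature.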
# D2 agonist: activates the human D2 dopamine receptor | DiscoveRx PathHunter D2 beta-arrestin, luminescence, 90 min; 100% = 57 uM dopamine signal | 0.084% of 360,000 active | activation, % (no concentration beside the values) | AID 624465 | P14416; in the data active = activation above about 40%; inconclusive = about 15% to 40%; inactive = below about 15%; note: compound concentration not given in the record; the text of the record calls up to 30% inactive
#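 DiscoveRx PathHunter D2 beta-arrestin cells (2,100/well) attached overnight, then compound-stimulated 90 min at 37 C in HBSS/10 mM HEPES/0.1% Tween-20 buffer; beta-galactosidase complementation read by luminescence after 1 h at ambient temperature. Dopamine 57 uM final (EC100) as control.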
# CtBP-E1A inh: inhibitors of CtBP/E1A interaction. AlphaScreen GST-E1A/His-CtBP binding, 1536-well; active compounds read low; control for the full effect not named in the record. activity change, % (no concentration beside the values). 0.49% of 340,000 active. AID 651724; in the data active means activity change below about -65%; inconclusive means about -30% to -65%; inactive means above about -30%; note: % is set by controls: 0 for no effect and ±100 for the full control effect
#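 Homogeneous bead-based format: GST-tagged E1A captured on glutathione donor beads, His-tagged CtBP on nickel acceptor beads; compounds precede bead addition by 2 h at 37 °C.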
# PINK1 modulator: modulators of PINK1 expression | PINK1 immunofluorescence, high-content cytometry, 24 h | Potency, µM (series often up to 76.6 µM), without a hit: at the top dose activation (PINK1 increase), most hits filed as activators | 0.2% of 410,000 active; active = well fitted activation curve with a large enough effect; inconclusive = small, poorly fitted or top-dose-only effect; inactive = flat fitted curve, though single readings scatter; cell line not stated here;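 note: potency is the fitted concentration of half-maximal effect; % of control where 0% means no effect; nearly all actives have a fitted effect of over 65% in size; a mitochondrial uncoupler was the plate control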
#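 A stable cell line was treated with compounds at 5 concentrations for 24 hours, with CCCP as control. PINK1 levels and mitochondrial localization were measured by immunofluorescence with mitochondrial, cell and nuclear markers after fixation, read by laser-scanning cytometry.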
# Six1-Eya2 blk: blocks human Six1 binding to Eya2; activity change, % (concentration not given with the values); Q15475+O00167; 0.56% of 360,000 active; AlphaScreen GST-Six1/His-Eya2 binding, biochemical; active compounds read low; control for the full effect not named in the record; in the data active = activity change below about -65%; inconclusive = about -30% to -65%; inactive = above about -30%; note: % is set by controls: 0 for no effect and ±100 for the full control effect
#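 Compounds are tested against tagged Six1 and Eya2 proteins bridged by glutathione donor and nickel acceptor beads; after a one-hour incubation at 37 °C without light, AlphaScreen emission is recorded.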
# TRPV1 potentiator: human TRPV1 potentiation | 0.02% of 320,000 active | Q8NER1 | potentiation, % at 8.33 µM | TRPV1-expressing cells, Fluo-8 calcium influx, capsaicin EC20 potentiation; host cell line not named in the record; control for the full effect not named in the record; active means potentiation above 80%; inconclusive means 30% to 80%; inactive means below 30%; note: 0% is about no effect
# Target sequence (Q8NER1 whole entry, looked up): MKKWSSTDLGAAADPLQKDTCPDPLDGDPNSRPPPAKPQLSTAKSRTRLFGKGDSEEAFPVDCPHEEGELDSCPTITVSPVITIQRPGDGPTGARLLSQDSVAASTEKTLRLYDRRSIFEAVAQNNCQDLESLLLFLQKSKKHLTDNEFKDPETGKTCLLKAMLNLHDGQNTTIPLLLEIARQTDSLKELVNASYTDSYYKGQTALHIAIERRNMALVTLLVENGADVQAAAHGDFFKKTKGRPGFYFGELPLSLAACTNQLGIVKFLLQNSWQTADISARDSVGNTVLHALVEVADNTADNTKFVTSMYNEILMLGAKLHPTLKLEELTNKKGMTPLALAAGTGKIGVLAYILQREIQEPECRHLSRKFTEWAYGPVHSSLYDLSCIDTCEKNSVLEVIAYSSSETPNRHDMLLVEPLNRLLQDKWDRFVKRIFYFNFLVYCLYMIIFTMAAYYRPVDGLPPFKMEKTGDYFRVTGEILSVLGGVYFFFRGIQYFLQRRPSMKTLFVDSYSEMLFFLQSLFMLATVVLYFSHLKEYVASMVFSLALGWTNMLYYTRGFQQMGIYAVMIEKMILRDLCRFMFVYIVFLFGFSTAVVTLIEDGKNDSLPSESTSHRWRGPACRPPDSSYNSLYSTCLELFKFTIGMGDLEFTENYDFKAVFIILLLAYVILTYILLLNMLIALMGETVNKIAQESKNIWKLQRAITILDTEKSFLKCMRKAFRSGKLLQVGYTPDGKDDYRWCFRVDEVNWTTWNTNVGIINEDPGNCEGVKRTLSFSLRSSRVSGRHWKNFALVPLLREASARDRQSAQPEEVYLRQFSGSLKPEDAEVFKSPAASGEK
#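 TRPV1-expressing cells were cultured overnight at 35.5C and loaded with Fluo-8 calcium dye for 40 to 90 min at room temperature. After a 10 s baseline, compound was added and calcium influx was read kinetically for 3 min (ex 480/em 520 nm).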
# Sfp inh: blocks B. subtilis Sfp PPTase activity; Biochemical Sfp PPTase activity, qHTS; Potency, µM, without a hit: max response, negative = inhibition, most hits filed as inhibitors; 3.5% of 310,000 active; AID 1490; active = well fitted inhibition curve with a large enough effect; inconclusive = small, poorly fitted or top-dose-only effect, or another doubt; inactive = no such curve, though single readings can be large or run the other way;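 note: the enzyme is Sfp with the accession as filed and its product quenches rhodamine fluorescence; potency is the fitted concentration of half-maximal effect; 0% = enzyme reaction without inhibitor and -100% = no enzyme wells; top concentration of the series not given in the record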
#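 Fluorescence-quenching assay: 15 nM Sfp-PPTase preincubated 15 min at room temperature with compound, then 5 uM rhodamine-CoA and 12.5 uM BHQ-2-labelled YbbR peptide added. Fluorescence (ex 525/em 598 nm) read at start and after 30 min; difference gives rate.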
# Active calls of the source: *; ? = inconclusive; nt = no result given; [ ] = another dose, or the depositor's remark.
mol	D2 PAM	D2 agonist	CtBP-E1A inh	PINK1 modulator	Six1-Eya2 blk	TRPV1 potentiator	Sfp inh
CC1CCCCN1C(=O)CSc1nc(-c2ccccc2)cn1N (centres undefined)	-10	-3.0	-1	0.5%	4	-5	-15%
CCOC(=O)C1=CNS(=O)(=O)NC1c1ccc(C)cc1 (centres undefined)	3	1.1	6	-0.4%	9	nt	nt
O=CN1CCN(C(C(=O)NC2CCCC2)c2ccc(Cl)cc2)CC1 (centres undefined)	-6	-1.8	8	-2.4%	0	7	8%
CC1=NN(c2ccccc2)C(=O)/C1=C\c1cc(C)n(-c2ccccc2)c1C	-18	-3.4	-17	25%	0	5	9%
CS(=O)(=O)N(CC(O)Cn1c2ccccc2c2ccccc21)c1ccccc1 (centres undefined)	-5	-0.2	0	1.0%	-2	1	11%
Cc1cccc2c1N(CCOc1ccccc1Cl)C(=O)C2=O	-36	-14	9	3.8%	0	5	0%
COc1ccc(OCC(O)CON2C(=O)c3ccccc3C2=O)cc1 (centres undefined)	10	-2.1	-1	2.2%	2	3	8%
COc1cc(-c2nnn(Cc3ccccc3C)n2)cc(OC)c1OC	-2	-2.9	nt	3.1%	11	-4	8%
Cc1cc(C)c2cc3c(N)c(C(=O)N4CCOCC4)sc3nc2c1	-10	-7.4	0	1.1%	0	8	?
Cc1nnc(SCC(=O)Nc2cc(S(=O)(=O)N3CCOCC3)ccc2C)s1	-20	-4.9	-2	1.2%	-2	-9	nt
COC(=O)c1cc2n(n1)CCN(Cc1ccc(OC)cc1)C2=O	-3	1.8	6	0.9%	6	10	20%
CCOC(=O)c1sc(NC(=O)c2ccccc2OC)nc1C	-4	-2.1	2	6.0%	-4	-3	17%
C=CCOC(=O)C1=C(C)NC(C)=C(C(=O)OCC=C)C1c1ccco1	-18	-5.9	nt	1.8%	-7	-2	1%
C/C(=N\N=C1\NC(=O)C(Cc2ccccc2)S1)c1ccccc1 (centres undefined)	-12	-4.3	nt	4.0%	0	-1	6%
COc1ccc(C)cc1NC(=O)CSc1nnc(COc2ccccc2)n1Cc1ccco1	-18	-0.6	-1	0.4%	-12	-25	79µM*
CCCCc1c(-c2ccccc2F)ncn1CCc1ccccc1OC	nt	nt	-2	?	-18	nt	nt
C=CCn1c(SCC(=O)c2cccs2)nc2sc(C)c(C)c2c1=O	19	-1.4	4	5.6%	-1	-9	9%
N=C1C(c2nc3ccccc3c(=O)[nH]2)=C(O)CN1CCc1ccccc1	-4	-6.0	-1	5.3%	-2	-8	-3%
COc1cccc(CNC(=O)c2ccc(C)c(S(=O)(=O)N3CCOCC3)c2)c1	-17	-5.5	0	3.1%	-2	-14	nt
CCN(CC(=O)NCc1cccs1)S(=O)(=O)c1ccc(F)c(F)c1F	-6	-0.9	-3	0.0%	0	9	nt
COC(=O)C1=C(N)Oc2c(oc(CO)cc2=O)C1c1ccccc1F (centres undefined)	-7	-3.7	0	5.4%[38.3 µM]	1	-4	18%
c1cc2c(c(NCc3ccncc3)c1)CCCC2	4	3.6	nt	1.4%	-10	15	-24%
COc1ccc(S(=O)(=O)NCc2ccccn2)cc1NC(=O)c1ccc(Cl)cc1	-22	-5.5	-18	3.3%	4	-22	nt
Oc1ccc2ccc(Cl)cc2c1	0	5.6	-6	2.3%	10	nt	nt
Cn1cccc1C(C#N)c1cccc(F)c1C#N (centres undefined)	-20	-11	5	-0.3%	-2	22	-2%

# The last three records of the part above are carried over, then new ones follow:
mol	D2 PAM	D2 agonist	CtBP-E1A inh	PINK1 modulator	Six1-Eya2 blk	TRPV1 potentiator	Sfp inh
COc1ccc(S(=O)(=O)NCc2ccccn2)cc1NC(=O)c1ccc(Cl)cc1	-22	-5.5	-18	3.3%	4	-22	nt
Oc1ccc2ccc(Cl)cc2c1	0	5.6	-6	2.3%	10	nt	nt
Cn1cccc1C(C#N)c1cccc(F)c1C#N (centres undefined)	-20	-11	5	-0.3%	-2	22	-2%
Cc1ccc(C(=O)NNC(=O)C2CCN(Cc3ccccc3)CC2)cc1	-2	-1.7	23	-1.3%	7	26	0%
O=C(Nc1ccccc1C(F)(F)F)NC1CCCCC1	-4	-3.8	5	1.0%[38.3 µM]	0	-19	7%
COc1ccc(-n2c(SC3CCOC3=O)nc3ccccc3c2=O)cc1OC (centres undefined)	-2	-1.6	-1	10µM*	-8	3	-2%
CSc1ccccc1NC(=O)Cn1nnc(-c2ccc(S(C)(=O)=O)cc2)n1	-2	-2.9	-3	-0.6%	2	?	-3%
CC(OC(=O)C1COc2ccccc2O1)C(=O)c1ccccc1 (centres undefined)	5	0.5	4	2.1%	4	nt	nt
CC(CN1CCCC1)OC(=O)c1ccc(Cl)cc1Cl (centres undefined)	-76	-2.5	nt	-0.1%	-7	-13	-1%
Cc1ccsc1/C=C1/SC(=O)N(CC(=O)N2CCCC2)C1=O	3	-1.9	4	10%	-2	-23	11%
Cc1nnc(SCc2ccccn2)n(N)c1=O	4	-2.6	0	3.7%	-1	5	9%
Cc1c(/C=C(\C#N)C(=O)NCc2ccccc2)cc(C#N)n1C	-19	-6.1	-6	0.7%	-4	?	18%
O=[N+]([O-])c1cc(Cl)ccc1N1CCCCC1	-3	-1.4	-24	2.1%	?	2	7%
COc1ccc(CNC(=O)Nc2nnc([C@H]3C[C@H](O)[C@@H](CO)O3)s2)cc1	-10	-7.0	5	0.3%	8	nt	nt
Cc1ccccc1-c1nnc(SCC(=O)Nc2c(C)n(C)n(-c3ccccc3)c2=O)o1	-2	1.5	4	0.1%	5	nt	nt
Cc1ccc(S(=O)(=O)c2c(C)cc(-c3ccccc3)[nH]c2=O)cc1	-18	-3.6	7	0.9%	-1	nt	7%
CC(C)COc1ccc(C(=O)N/N=C/c2ccoc2)cc1	-7	-1.4	-9	1.3%	-1	-15	6%
Cc1cc(=O)n(C)c(=O)n1CCCCCCN1CCCC1	2	-2.3	-11	0.7%[38.3 µM]	1	-13	-11%
O=C(CCN1C(=O)C2(OCCO2)c2ccccc21)c1ccccc1	-8	-2.0	18	1.2%	11	-14	12%
CN(C(=O)c1cccc(NC(=O)Cc2ccc(NC(=O)C3CCCN(C(=O)CCc4ccccc4)C3)cc2)c1)C1CCCCC1 (centres undefined)	5	3.3	-8	-0.6%	-8	nt	nt
CC(=O)N1CCN=C1SCc1ccccc1F	-11	-2.8	1	0.1%	1	10	1%
O=C(Nc1ccncc1)c1cc(S(=O)(=O)N2CCOCC2)ccc1Cl	-2	-2.1	-4	-7.2%	2	7	nt
CCOc1ccc2oc(C(=O)N3CC(C)OC(C)C3)c(C)c2c1 (centres undefined)	6	-2.3	0	5.2%	16	-13	14%
Cc1[nH]c(=O)[nH]c(=O)c1S(=O)(=O)Nc1ccc(F)cc1Cl	-3	-4.0	-5	3.8%	6	-4	10%
CCOC(=O)c1ccsc1NC(=O)c1ccco1	-12	-1.8	3	-0.3%	7	-10	8%
CCO/C(C)=N/Oc1cccc(N(C)C)c1	13	6.4	-14	-0.8%	-21	nt	nt
Cc1cc(C)c(OCC(=O)Nc2cc(C(=O)O)cc(C(=O)O)c2)cc1C	-47	-6.1	nt	-0.3%	1	27	16%
CC(=O)/C=C/c1ccc2ccccc2n1	0	-2.2	0	0.0%	2	1	-11%
Cn1c(=O)c2c(nc(NCC3CCCO3)n2C)n(C)c1=O (centres undefined)	5	0.7	5	?	-1	-4	22%
COC1OC2COC(c3ccccc3)OC2C2OC(c3ccccc3)OC12 (centres undefined)	-7	-5.0	0	10%	0	nt	nt
O=C(CCC(=O)N(c1cccc(F)c1)C(C(=O)NC1CCCC1)c1ccncc1)Nc1cccnc1 (centres undefined)	-3	-2.5	3	0.2%	2	13	20%
O=C1NC(=Nc2ccccc2Cl)S/C1=C\c1cccc([N+](=O)[O-])c1O	-11	-8.2	-7	0.8%	-21	15	-23%
CCOC(=O)C1=NOC2C(=O)N(c3ccc(Cl)cc3Cl)C(=O)C12 (centres undefined)	0	-0.9	-1	-0.9%	-6	5	23%
COc1ccc(S(=O)(=O)N2CCN(CC(=O)N3CCNC3=O)CC2)cc1OC	0	0.0	12	1.0%	6	nt	nt
Cc1cccc(CC2CC(=O)N(c3nc4ccccc4s3)C2=O)c1 (centres undefined)	2	-3.6	2	0.9%	1	-3	3%
COc1ccc(CC(=O)N2CCc3cc(OC)c(OC)cc3C2C)c(OC)c1 (centres undefined)	4	-1.5	0	4.3%	16	4	19%
Cc1c(CCC(=O)O)c(=O)oc2cc(OCc3ccc(Br)cc3)ccc12	-2	-2.7	-7	-0.4%	1	8	8%
Cc1ccc(CNS(=O)(=O)c2cn(C)c(=O)n(C)c2=O)cc1	-2	-5.4	2	0.6%	2	-14	18%
Oc1ccccc1C(=S)N1CCCC1	-1	-2.7	7	2.3%	2	0	50µM*
COc1ccc(CNC(=O)C2CCN(S(=O)(=O)c3ccc4c(c3)N(C(C)=O)CCO4)CC2)cc1	-5	-1.9	-5	0.9%	-1	-6	10%
Cn1cc(Br)c(C(=O)Nc2c(F)c(F)c(F)c(F)c2F)n1	4	0.3	16	0.7%	22	13	-7%
Cc1cc(C)c(OCC(=O)N/N=C/c2ccco2)c(C)c1	4	-0.4	-3	-0.1%	-1	3	3%
COc1ccc2[nH]c3c(c2c1)CCN1C(=O)C(CC(=O)NCCC2=CCCCC2)C[C@H](C(=O)N2CCCCC2)[C@@]31CCc1ccccc1 (some centres undefined)	-4	-0.1	1	2.7%	-1	nt	nt
CCN(C)Cc1c(C(=O)N2CCc3ccccc3C2)nc2ccc(Cl)cn12	-1	-3.0	1	0.2%	2	2	9%
C=C(C)[C@@H]1CC=C(CN2CCN(Cc3ccccc3)CC2)CC1	-26	-4.5	-10	14%	-7	0	0%
CCNC(=O)C1CCCN(C(=O)c2ccc(C#N)cc2)CC1 (centres undefined)	-2	-1.0	3	0.9%	0	nt	nt
Cc1nn(C)c(C)c1NC(=O)c1ccccc1NC(=O)Nc1ccccc1	4	-0.8	nt	-0.2%	1	-2	15%
CC(C)(CN1CCCN(CC(C)(C)C(=O)O)C1=O)C(=O)O	1	-1.8	5	-1.3%	4	nt	nt

# Screening data (PubChem)
